# ClpP mod: qHTS Assay for Activators of ClpP; ATP-dependent Clp protease proteolytic subunit (Bacillus subtilis (strain 168)), P80244; purified B. subtilis ClpP, FRET peptide cleavage, 20 min; Potency, µM (top dose mostly 57.5 µM), without a hit: at the highest dose activity change, negative = active; 1.9% of 340,000 active; AID 651965, 2013; active = well fitted falling curve with a large enough effect; inconclusive = small, poorly fitted or top-dose-only effect; inactive = no such curve, though single readings can be large or run the other way; also: potency is read from the fitted curve at half-maximal effect; the source files actives as falling curves though it sought activators and does not explain the sign; nearly all actives have a fitted effect of over 65% in size; many hits overshoot -100%
# Target sequence (P80244 whole entry, looked up): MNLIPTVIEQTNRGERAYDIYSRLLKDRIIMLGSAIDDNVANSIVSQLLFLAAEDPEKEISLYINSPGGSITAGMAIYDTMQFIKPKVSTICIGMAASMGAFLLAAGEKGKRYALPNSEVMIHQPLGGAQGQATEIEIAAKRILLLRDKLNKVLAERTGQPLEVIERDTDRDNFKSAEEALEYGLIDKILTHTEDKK
#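 FRET quenching reversal measured ClpP activation: 10 microg/mL B. subtilis ClpP at pH 8 with the FRET-FV decapeptide, read at 430 nm after 320 nm excitation. The 20-min minus 0-min signal was scaled between DMSO/no-enzyme wells and ADEP (5.8 microM final).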
# gsp ag: qHTS for Agonist of gsp, the Etiologic Mutation Responsible for Fibrous Dysplasia/McCune-Albright Syndrome: qHTS; Potency, µM (doses to about 76.9 µM), without a hit: top-dose activation (cAMP increase), usual class: activators; 0.13% of 340,000 active; gsp mutant cells, cAMP HTRF, 30 min; control for the full effect not named in the record; AID 624287, 2012; active = well fitted activation curve with a large enough effect; inconclusive = small, poorly fitted or top-dose-only effect, or another doubt; inactive = no such curve, though single readings can be large or run the other way; cell line not stated here;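 also: phosphodiesterase inhibitor Ro 20-1724 added with compounds to block cAMP breakdown; potency is read from the fitted curve at half-maximal effect; nearly all actives have a fitted effect of over 60% in size; about a fifth of the inactives were tested at one dose only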
#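 Cells stably selected in G418 were plated at 2000/well, grown 16-24 hr, then given compounds in DMSO with the PDE inhibitor […] (300 uM solution added) for 30 min at 37C; cAMP was read by HTRF.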
# TRPML1 blocker: qHTS for Inhibitors of the Human Mucolipin Transient Receptor Potential 1 (TRPML1); TRPML1-inducible cells, Ca2+ dye fluorescence, FDSS; active compounds read low; inhibition of EC80 agonist-evoked calcium signal; activity change, negative = inhibition, % (concentration not given with the values); 0.02% of 390,000 active; AID 624415, 2012; in the data active means activity change below about -50%; inconclusive means about -30% to -50%; inactive means above about -30%;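 also: stimulus is agonist 54-4 at its EC80 concentration; % is scaled to controls: 0 for no effect and ±100 for the full control effect; the text of the record puts the active cut at -80%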
#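 Tet-induced TRPML1-DL cells loaded with Ca8 no-wash calcium dye were read kinetically on FDSS. Compound addition was followed by EC80 agonist 54-4 (4 uM final); inhibition was read over 110 s.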
# gsp antagonist: qHTS for Antagonists of gsp, the Etiologic Mutation Responsible for Fibrous Dysplasia/McCune-Albright Syndrome: qHTS | gsp-mutant cells, cAMP HTRF, 30 min; control for the full effect not named in the record | Potency, µM (top dose mostly 76.9 µM), inactives show at the top dose activity change, negative = inhibition, most hits filed as inhibitors | 0.4% of 340,000 active | AID 624288, 2012; active = falling curve of any shape with a large fitted effect; inconclusive = falling curve, mostly with a smaller effect; inactive = flat or rising curve; cell line not stated here;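 also: intracellular cAMP measured with PDE inhibitor Ro 20-1724 present during compound exposure; potency is read from the fitted curve at half-maximal effect; % is scaled to controls: 0 for no effect and ±100 for the full control effect; nearly all actives have a fitted effect of over 65% in size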
#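 Cells, 2000/well, grown 16–24 h in DMEM 10% FBS with 0.5 mg/ml G418, then compounds plus […] (300 uM addition stock), 30 min at 37C. cAMP read by HTRF (cAMP-d2 and anti-cAMP antibody-K in lysis buffer) after 30 min RT.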
# TRPV1 potentiator: HTS Assay for Compounds that Act as Potentiators of the Vanilloid Receptor 1. Transient receptor potential cation channel subfamily V member 1 (Homo sapiens), Q8NER1. AID 540277, 2011. 0.02% of 320,000 active. TRPV1-expressing cells, Fluo-8 calcium influx, capsaicin EC20 potentiation; host cell line not named in the record; control for the full effect not named in the record. potentiation, % at 8.33 µM; active means potentiation above 80%; inconclusive means 30% to 80%; inactive means below 30%; also: 0% is about no effect
# Target sequence (Q8NER1 whole entry, looked up): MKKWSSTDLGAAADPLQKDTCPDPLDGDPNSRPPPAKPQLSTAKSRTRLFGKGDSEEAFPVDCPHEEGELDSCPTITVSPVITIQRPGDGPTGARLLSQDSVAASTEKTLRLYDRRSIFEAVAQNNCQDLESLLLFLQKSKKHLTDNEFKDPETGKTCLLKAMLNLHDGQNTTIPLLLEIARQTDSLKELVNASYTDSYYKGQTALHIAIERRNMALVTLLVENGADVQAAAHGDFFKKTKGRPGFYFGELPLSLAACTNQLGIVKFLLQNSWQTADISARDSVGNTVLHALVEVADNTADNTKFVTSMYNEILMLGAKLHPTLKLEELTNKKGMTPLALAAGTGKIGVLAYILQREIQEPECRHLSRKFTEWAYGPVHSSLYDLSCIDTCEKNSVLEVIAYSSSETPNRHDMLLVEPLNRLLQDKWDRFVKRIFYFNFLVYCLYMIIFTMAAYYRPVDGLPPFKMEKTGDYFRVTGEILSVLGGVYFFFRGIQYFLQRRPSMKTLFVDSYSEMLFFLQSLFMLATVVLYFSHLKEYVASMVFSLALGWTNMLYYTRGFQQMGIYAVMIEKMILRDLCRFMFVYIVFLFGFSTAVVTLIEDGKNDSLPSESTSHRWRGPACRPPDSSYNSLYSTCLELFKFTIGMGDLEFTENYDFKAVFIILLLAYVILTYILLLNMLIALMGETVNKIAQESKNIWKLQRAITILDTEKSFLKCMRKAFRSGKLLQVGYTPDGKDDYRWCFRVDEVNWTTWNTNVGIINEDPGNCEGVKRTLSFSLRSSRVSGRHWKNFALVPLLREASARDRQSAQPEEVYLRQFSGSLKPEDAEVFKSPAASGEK
#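 Cells expressing TRPV1 were dye-loaded with Fluo-8 and read kinetically: 10 s baseline, 3 min after compound (agonist portion), then 2 min after EC20 capsaicin (allosteric enhancer portion). Calcium-bound dye fluorescence at 480/520 nm.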
# Menin-MLL FL inh: qHTS Assay for Inhibitors Targeting the Menin-MLL Interaction in MLL Related Leukemias: Competition With Fluorescein Labeled MLL-derived Peptide; AID 1766, 2009; FP activity change, % at 61.4 µM; Fluorescence polarization, fluorescein-MLL peptide displacement from menin; 290,000 tested, under 10 active; inconclusive = falling polarisation curve, or a change in total fluorescence; inactive = total fluorescence flat and polarisation flat or rising; no compound was filed as active; the % refers to the polarisation; negative = inhibition;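 also: % of control where 0% means no effect; inhibitors lower the polarisation; unlabelled MLL peptide was the positive control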
# Sfp PPTase inh: qHTS Assay for Inhibitors of Bacillus subtilis Sfp phosphopantetheinyl transferase (PPTase); Biochemical Sfp PPTase activity, qHTS; Potency, µM, inactives show max response, negative = inhibition, hits mostly inhibitors; 3.5% of 310,000 active; active = well fitted inhibition curve with a large enough effect; inconclusive = small, poorly fitted or top-dose-only effect, or another doubt; inactive = no such curve, though single readings can be large or run the other way;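 also: the enzyme is Sfp with the accession as filed and its product quenches rhodamine fluorescence; potency is read from the fitted curve at half-maximal effect; 0% = enzyme reaction without inhibitor and -100% = no enzyme wells; top concentration of the series not given in the record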
#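 Reaction rates are the 30-min fluorescence difference (ex 525, em 598 nm) in wells containing 15 nM Sfp, 5 uM rhodamine-CoA and 12.5 uM BHQ-2-YbbR at pH 7.6 with 10 mM MgCl2.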
# * = called active by the depositor; u = inconclusive; x = not tested or not shown; [ ] = dose if it differs, or a comment.
# The opening 2 compounds (preview)
# Fields: ClpP mod | gsp ag | TRPML1 blocker | gsp antagonist | TRPV1 potentiator | Menin-MLL FL inh | Sfp PPTase inh
Cc1cc(C)cc(Oc2cc(NC(=O)c3cn(C)nc3C)cc([N+](=O)[O-])c2)c1
  -2.7% | -4% | 9 | -1% | 2 | -2.5 | 21%
O=C(CN1C(=O)NC(c2ccccc2)(c2ccccc2)C1=O)c1c[nH]c2ccccc12
  x | x | x | x | 11 | u | 0%

# The whole of this part, from the start:
# Fields: ClpP mod | gsp ag | TRPML1 blocker | gsp antagonist | TRPV1 potentiator | Menin-MLL FL inh | Sfp PPTase inh
Cc1cc(C)cc(Oc2cc(NC(=O)c3cn(C)nc3C)cc([N+](=O)[O-])c2)c1
  -2.7% | -4% | 9 | -1% | 2 | -2.5 | 21%
O=C(CN1C(=O)NC(c2ccccc2)(c2ccccc2)C1=O)c1c[nH]c2ccccc12
  x | x | x | x | 11 | u | 0%
O=C(N/C=C/c1ccc(Cl)cc1)NCc1ccc(Cl)cc1
  -2.2% | -32%[inhibitor] | 12 | 3% | -8 | -0.3 | 15%
CCCCOc1ccc(N(CC(=O)NCc2ccccc2)C(=O)c2csnn2)cc1
  x | 6%[15.4 µM] | 5 | x | -8 | 3.7 | -1%
COc1ccc(CNC(=O)C2CCN(C(=O)c3ccccc3)CC2)cc1
  -0.4% | 15% | 18 | 0% | 1 | x | 8%
Cc1ccc(COC(=O)c2nn(-c3ccccc3)nc2N)cc1
  3.5% | 3% | -1 | -8% | -10 | 4.0 | 16%
Cc1cc(C(=O)Nc2sc3c(c2C#N)CCCCC3)cs1
  42% | -1% | 8 | -8% | -5 | 0.9 | u
Cc1ccc(C(=O)O)cc1NC(=O)C1=CSCCO1
  -0.8% | 13% | -17 | -4% | 21 | -1.5 | 7%
Cc1ccc(C)c(NS(=O)(=O)c2ccc(OCC(=O)N3CCOCC3)cc2)c1
  0.9% | -2% | 8 | 7% | -1 | 3.5 | -6%
CCOC(=O)c1cc2cc(OC)ccc2[nH]1
  u | 18% | -10 | 5%[15.4 µM] | 0 | 1.1 | -15%
COc1cccc(Cn2nnc(C(=O)NCc3ccc(F)cc3)c2N)c1
  1.1% | 0% | 22 | 9% | 28 | -0.5 | 6%
CCOC(=O)C1=NN(C(C)=O)C2(CC(=O)N(c3cccc(C)c3)C2=O)C1 (stereo not given)
  1.5% | -61%[inhibitor] | 7 | 5% | -17 | 2.0 | 11%
C=CCOC(=O)C1=C(C)NC(SCC(=O)Nc2nccs2)=C(C#N)C1c1ccc(Cl)cc1 (stereo not given)
  -9.2% | -7% | -5 | u | 5 | 4.2 | -5%
Cc1ccc(-c2n[nH]c(=S)n2/N=C/C=C\c2ccccc2[N+](=O)[O-])cc1
  -6.2% | 2% | 14 | -27% | -6 | 4.7 | -25%
Cc1nn(C2CCS(=O)(=O)C2)c(Cl)c1/C=C/C(=O)OCC(=O)Nc1ccccc1OC(F)F (stereo not given)
  -1.3% | 0% | -14 | -19% | -2 | -0.2 | 8%
C=CCc1c(C)nc(-c2ccccc2)nc1N/N=C/c1ccccc1
  -0.4% | 15% | 29 | 36%[activator] | -2 | 1.9 | 14%
COc1cc([N+](=O)[O-])ccc1NC(=O)CSc1ccccn1
  x | x | x | x | 20 | -1.4 | -16%
O=C(C1CC(=O)N(c2ccc(F)cc2)C1)N1CCCCC1 (stereo not given)
  x | u | -8 | 11% | -2 | -3.2 | 9%
CCOC(=O)N1CCC(N(CCN(C)C)C(=S)Nc2cccc(OC)c2)CC1
  -0.7% | 22% | -14 | 3% | -9 | -0.7 | -17%
Cc1c(C(=O)N2CCOCC2)cc(C(C)(C)C)n1-c1ccccc1
  x | 5%[15.4 µM] | 32 | 0% | -8 | -1.2 | 6%

# Next section.
SMILES	ClpP mod	gsp ag	TRPML1 blocker	gsp antagonist	TRPV1 potentiator	Menin-MLL FL inh	Sfp PPTase inh
CCCC(=O)Nc1ccc2c(c1)nc1n2CCSC1	1.9%	4%	8	9%	-11	18	-17%
O=C(Cc1ccccc1)CC(CC(=O)c1ccccc1)c1ccccc1 (stereo not given)	-0.3%	-9%	42	x	x	x	x
COc1ccc(C(CNC(=O)CNC(=O)c2cccc(C)c2)N2CCCCC2)cc1 (stereo not given)	2.8%	10%	40	13%	x	x	x
CCOC(=O)C1=C(c2ccccc2)O/C(=C(/C(=O)OC)C(F)(F)F)S1	-29%	7%	5	0%	-8	2.0	14%
CC(C)c1ccc(C(=O)NNC(=O)c2ccncc2)cc1	x	16%	0	6%	-10	1.1	-5%
COc1ccc(C2CC(c3ccc(Cl)cc3Cl)n3nc(N)nc3N2)cc1 (stereo not given)	-3.5%	-24%	4	-1%	-5	3.9	0%
O=C(NCCCN1CCOCC1)C(=O)NCCc1ccccc1	x	-2%[15.4 µM]	-8	x	-5	0.0	22%
CC(C)CN(CC(C)C)C(=O)CC(=O)NC(=O)c1ccc(Cl)cc1	0.7%	-31%[inhibitor]	-5	-6%	-1	0.1	6%
Cc1ccc(C(=O)NCc2ccco2)cc1S(=O)(=O)Nc1cccc(C)c1C	0.6%	3%	7	-10%	6	0.2	-11%
CCN(CCNCC(O)COCc1ccc(Cl)cc1)c1cccc(C)c1 (stereo not given)	x	7%[15.4 µM]	-16	11%	-4	-0.2	10µM*

# Sorted by SMILES length (smallest number first): part of the list above.
SMILES	ClpP mod	gsp ag	TRPML1 blocker	gsp antagonist	TRPV1 potentiator	Menin-MLL FL inh	Sfp PPTase inh
CCCC(=O)Nc1ccc2c(c1)nc1n2CCSC1	1.9%	4%	8	9%	-11	18	-17%
COc1ccc(C2CC(c3ccc(Cl)cc3Cl)n3nc(N)nc3N2)cc1 (stereo not given)	-3.5%	-24%	4	-1%	-5	3.9	0%
COc1ccc(C(CNC(=O)CNC(=O)c2cccc(C)c2)N2CCCCC2)cc1 (stereo not given)	2.8%	10%	40	13%	x	x	x

# Additional structures follow:
SMILES	ClpP mod	gsp ag	TRPML1 blocker	gsp antagonist	TRPV1 potentiator	Menin-MLL FL inh	Sfp PPTase inh
O=[N+]([O-])c1nn(-c2cccc(Cl)c2)n(O)c1=NCc1cccnc1	0.8%	3%	12	8%	3	3.0	-3%
Cc1cc(-c2csc(N)n2)c(C)n1CCc1ccccc1	0.0%	-22%	-4	1%	4	-17	45µM*
CCn1c(-c2cc(-c3ccccc3OC)nc3ccccc23)n[nH]c1=S	-4.3%	3%	16	-15%	-4	5.7	-14%
Cc1ccc(-n2nnnc2C(Cl)(Cl)c2nnnn2-c2ccc(C)cc2)cc1	-0.8%	-5%	4	7%	-5	2.3	3.2µM*
CCOc1ccccc1N(C(=O)c1ccco1)C(C(=O)NC1CCCC1)c1cccs1 (stereo not given)	x	8%	6	-5%	1	x	9%
COc1cccc(C(=O)N2CCC(C(=O)NCc3ccc(C)cc3)CC2)c1	x	-4%	0	1%	0	2.8	4%
CCc1nnc(NC(=O)CSc2nc(-c3ccc(OC)cc3)ns2)s1	0.3%	-19%	-11	0%	13	2.0	5%
C/C(=N/NC(=O)c1cc2ccccc2cc1O)C1C(=O)c2ccccc2C1=O	0.0%	u	-1	u	13	12	0%
CS(=O)(=O)n1nc(OC(=O)c2cccc3ccccc23)cc1N	73%	24%	-15	18%	19	2.1	8%
O=C(CCSc1ccccc1)Nc1nc2c(s1)CCCC2	-2.1%	14%	-7	-12%	-9	u	-1%
O=C(COc1ccc(Cl)cc1)NCCNC(=O)c1ccccn1	x	2%	0	3%	3	0.9	17%
Cc1ccc(N2C(=O)c3ccccc3C(C)(C)C2=O)cc1	-0.9%	-7%[15.4 µM]	-12	-8%	7	0.0	10%
Cn1c(SC2=CS(=O)(=O)c3ccccc32)nc2ccccc21	4.0%	3%	-4	-10%	6	0.1	8%
O=C(CCN1CCOCC1)Nc1c(-c2ccccc2)c2cc(Br)ccc2[nH]c1=O	-9.0%	16%	9	3%	-5	3.1	-24%
CC(C)(C)N1C(=O)c2ccccc2NC(=O)N1Cc1ccccc1	-0.8%	-24%	-22	-4%	-8	-0.8	12%
O=S(=O)(c1cccc2ccccc12)N1CCC2CC1c1cc(Cl)ccc12 (stereo not given)	-2.1%	x	23	-3%	x	x	x
COc1ccc2c(c1O)Cc1ccccc1C2=O	0.4%	-17%	3	2%	9	2.3	45µM*
O=C(c1ccc(COc2ccccc2Cl)o1)N1CCN(c2ccccc2)CC1	-2.3%	-39%	0	u	x	0.7	-11%
CCCCCCC(=O)N1CCN(c2cc3c(cc2F)c(=O)c(C(=O)O)cn3CC)CC1	u	1%	6	11%	x	x	x
CCN(CC)S(=O)(=O)c1ccc(N2CCN(c3cccc(OC)c3)CC2)c([N+](=O)[O-])c1	-2.3%	u	71	-4%	18	2.5	10%
Cc1ccc(-n2c(SCC(=O)Nc3ccc4c5c(cccc35)CC4)nc(O)c(C)c2=O)cc1	4.6%	6%	-18	-10%	2	0.7	-4%
COc1cc(C2Nc3ccccc3C(=O)N2c2ccccc2)c(Br)cc1OCC(=O)O (stereo not given)	32µM*	-31%[inhibitor]	-12	9%	10	0.5	6%
Cc1ccc(NC(=O)CN2C(=O)C3C4C=CC(C4)C3C2=O)cc1S(=O)(=O)N(C)C (stereo not given)	0.3%	-6%	6	2%	-2	2.3	-16%
O=C(CCCC(=O)OCC(=O)c1ccc(F)cc1)Nc1cc(C(F)(F)F)ccc1Cl	1.2%	-23%	14	-16%	-21	5.6	0%

# Assay outcomes (PubChem)
